High-throughput results as filed in PubChem.
MgrA-DNA mod: S. aureus MgrA activity modulators, primary screen, biochemical, S. aureus Newman, fluorescence polarization | inhibition, %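 (about 10 µg/mL by stock and volumes)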 | 0.13% of 84,000 active | MgrA-DNA binding | AID 602314, 2012;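 active = above 50% in either of two replicates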;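 also: 0% = protein plus DNA without compound and 100% = DNA alone without protein; higher means less MgrA bound to DNA so lower polarization; one replicate is shown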
Sa helicase inh: inhibitors of S. aureus replicative helicase, primary screen, biochemical, fluorescence unwinding readout. replicative DNA helicase (DnaC/DnaB), Staphylococcus aureus. purified S. aureus helicase, fluorescence unwinding assay; about half of the hits fall short of the stated cut. inhibition, %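 (tested at about 80 µM)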. 0.05% of 120,000 active. AID 485395, 2010;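 active = both duplicates at 50% or more, or one of them with a favoured structure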;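 also: 0% = mean of negative control wells and 100% = mean of positive control wells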
* = called active by the depositor; . = not tested or not shown. The list is partial; the hit share may differ from the screen's.

Fields – MgrA-DNA mod | Sa helicase inh
O=C1CC(c2ccccc2)Oc2ccc(F)cc21 (configuration not stated)
  . | 7
CC1Oc2ccccc2C=C1/C=C(\C#N)C(=O)NC1CCS(=O)(=O)C1 (configuration not stated)
  . | -35
O=C(Nc1ccc(OC(F)(F)F)cc1)OC1CN(C(c2ccccc2)c2ccccc2)C1
  -1.1 | .
O=C(CCn1c(=S)[nH]c2cc3c(cc2c1=O)OCO3)NC1CCCC1
  -0.9 | 0
CCCc1cc(=O)oc2cc(OC(=O)/C=C/c3cccs3)ccc12
  -0.7 | .
Nc1nonc1-n1nnc(C(=O)O)c1-c1cccc2ccccc12
  . | 0
CCCOC(=O)c1cccc(NC(=O)OCC)c1
  . | 1
c1ccc(CCN2CN=C(Nc3nc4ccccc4s3)NC2)cc1
  . | -24
CC12CN(NC=O)C3(C#N)CC1CCC23C (configuration not stated)
  -0.2 | 0
Cc1noc(C)c1C(=O)OCC(=O)C12CC3CC(CC(C3)C1)C2
  . | 1

The list continues:
Fields – MgrA-DNA mod | Sa helicase inh
CC(=O)Nc1ccc(Oc2cncc(Cl)c2)nc1
  1.4 | .
OCc1sccc1Oc1ccccc1
  -1.8 | .
O=c1cc(-c2ccccc2)nc(N2CCN(Cc3ccc4c(c3)OCO4)CC2)[nH]1
  -0.9 | 10
CC1CCCC(NC(=O)COC(=O)CSc2nnc(-c3ccc(Cl)cc3)o2)C1C (configuration not stated)
  . | -7
CCN1CCN(CC(O)COc2ccc(C3CCCCC3)cc2)CC1 (configuration not stated)
  . | -24
Cc1ccc(S(=O)(=O)NC(C)C(=O)N2CCN(c3cccc(Cl)c3)CC2)cc1 (configuration not stated)
  0.2 | 25
Cc1cc(C)nc(SCC(=O)CSc2nc(C)cc(C)n2)n1
  . | 5
COC(CNC(=O)c1ccc2c(c1)ncn2-c1ccc(F)cc1F)OC
  0.6 | 2
COc1ccc(CCNC(=O)C2c3ccccc3C(=O)N2C2CCCC2)cc1OC (configuration not stated)
  . | 4
CC(OC(=O)Cc1ccc(F)cc1)C(=O)Nc1ccc(S(N)(=O)=O)cc1 (configuration not stated)
  . | 5

Full records, looked up by structure. Screens in order: MgrA-DNA mod, Sa helicase inh
Listed for CC(OC(=O)Cc1ccc(F)cc1)C(=O)Nc1ccc(S(N)(=O)=O)cc1 (configuration not stated) : ., 5
Listed for CC(=O)Nc1ccc(Oc2cncc(Cl)c2)nc1 : 1.4, .
Listed for CCN1CCN(CC(O)COc2ccc(C3CCCCC3)cc2)CC1 (configuration not stated) : ., -24

(next part)
Fields – MgrA-DNA mod | Sa helicase inh
COc1ccc(/C=C2\C(=O)NC(=S)N(c3cccc4ccccc34)C2=O)cc1OC
  16 | .
COc1ccc(-n2nnnc2SC(C)C(=O)Nc2ccc(S(=O)(=O)N3CCOCC3)cc2)cc1 (configuration not stated)
  . | -6
COC(=O)c1cc(COC(=O)c2cc3ccccc3cc2O)oc1C
  . | 25
CC12CC3CC(C)(C1)CC(C(=O)NN)(C3)C2
  0.0 | .
N#Cc1coc2ccccc2c1=O
  1.5 | .
CCN(C(=S)NC(=O)C1CCCC1)C1CCCCC1
  . | 10
O=C(CSc1ncccc1C(=O)NCc1cccnc1)Nc1cccc(C(F)(F)F)c1
  . | 3
S=C1NCN(CCc2ccccc2)CN1CCCN1CCOCC1
  . | -35
CC1=Nc2ccccc2NC(=O)C1Sc1nc2ccccc2s1 (configuration not stated)
  -0.8 | 6
CC1=C(C(=O)OC2CCCC2C)C(c2ccc(Cl)cc2)NC(=O)N1 (configuration not stated)
  2.1 | 11

(more compounds)
Fields – MgrA-DNA mod | Sa helicase inh
CCc1c(O)c2ccccc2n(-c2ccccc2)c1=O
  3.0 | .
COc1ccc(-c2nc(SCC(N)=O)c3c(=O)n(C)c(=O)n(C)c3n2)cc1
  0.3 | 19
CC(=O)NC(Cc1ccccc1)C(=O)NC1CCN(c2nnnn2-c2ccccc2)CC1 (configuration not stated)
  1.4 | 7
Cn1nc(-c2ccc(OCC(N)=O)cc2)c2ccccc2c1=O
  . | 4
O=C(CN1CCN(c2ccc(O)cc2)CC1)N(C1CCCCC1)C1CCS(=O)(=O)C1 (configuration not stated)
  . | 5
Cc1cc2c3c([nH]c2cc1S(=O)(=O)NCCCc1ccco1)CCCC3=O
  . | 11
COC(=O)c1ccc2c(=O)[nH]c(COC(=O)c3cccnc3Nc3ccccc3OC)nc2c1
  . | 7
C=CCC(NCc1ccccc1)c1ccco1 (configuration not stated)
  -2.6 | .
O=C(OCc1cccc(C(F)(F)F)c1)c1ccccc1F
  . | -5
C/C(=N\NC(=O)Cn1nnc(-c2ccccc2)n1)c1nonc1C
  7.8 | 7

The listing continues:
Fields – MgrA-DNA mod | Sa helicase inh
O=C(Oc1ccc(C2SCCS2)cc1)c1cccc(C(F)(F)F)c1
  -1.0 | 1
C=C(C)C(=O)Nc1ccc(O)c(-c2nc3ccccc3[nH]2)c1
  2.2 | 1
Cc1ccc(C(CC(=O)N2CCOCC2)c2ccccc2)c(O)c1C (configuration not stated)
  3.2 | 9
CNCc1c(C)nn(Cc2ccccc2Cl)c1C
  . | -1
CN(Cc1ccccc1)C(=O)C1CCCN1S(=O)(=O)c1ccc2c(c1)n(C)c(=O)c(=O)n2C (configuration not stated)
  -1.1 | 4
CC(Sc1nnnn1-c1ccccc1)c1nc2scc(-c3ccccc3)c2c(=O)[nH]1 (configuration not stated)
  . | -13
CCCCc1c(C)c(C#N)c2[nH]c3ccccc3n2c1=O
  2.4 | 5
CCC(C)NCCOc1ccc(Cl)c(Cl)c1 (configuration not stated)
  . | -15
CC(=O)Nc1ccc(NC(=O)C2CCCCN2C(=O)C2CCC(C)CC2)cc1 (configuration not stated)
  -0.1 | 6
CC(C)(C)c1ccc(-c2nc3ccccc3c(=O)[nH]2)cc1
  -0.9 | .

Next structures:
Fields – MgrA-DNA mod | Sa helicase inh
C/C(=C\C(=O)C(F)(F)F)NCc1ccccn1
  . | 10
CCC(C)NC(=O)C1CCN(c2ncccn2)CC1 (configuration not stated)
  17 | 6
Cc1sc2ncnc(NCC3CN(Cc4ccccc4)CCO3)c2c1C (configuration not stated)
  . | -9
CCOc1ccc(NC(=O)C(C)C(Cc2ccc(C)cc2)C(=O)O)cc1 (configuration not stated)
  0.8 | 5
CC(=O)Nc1sc2c(c1C#N)CCC2
  0.3 | 3
c1ccc2nc(SCc3cn4ccccc4n3)cnc2c1
  -1.8 | 4
Cc1ccc2c(c1)N(C(C)C(=O)NCc1ccccn1)C(=O)CO2 (configuration not stated)
  11 | -19
CSc1ccc(C2CC(=O)NC3=C2C(=O)CCC3)cc1 (configuration not stated)
  . | 10
NC(=O)CNc1ncc(C(F)(F)F)cc1Cl
  -1.1 | .
Cc1ccc(/C=N/N=C(/C(=O)c2ccccc2)c2ccccc2)o1
  . | -12

Further entries follow.
Fields – MgrA-DNA mod | Sa helicase inh
Cc1cscc1S(=O)(=O)c1ccc(Cl)cc1
  0.0 | .
N#C/C(=C(/O)C(F)(F)F)c1nnc2n1CCCCC2
  -1.6 | -10
CN(Cc1ccccc1)S(=O)(=O)c1cc(Br)cnc1N
  -0.2 | 18
C/C=C/C(=O)NCc1ccccc1
  . | 2
COC(=O)c1c(NC(=O)C2CSC(c3ccncc3)=N2)sc(C)c1C (configuration not stated)
  . | 14
O=C(O)C1CC(=O)N(c2ccccc2O)C1 (configuration not stated)
  -4.0 | .
CCn1c(C(C)NC(=O)C(C)(C)C)nc2ccccc21 (configuration not stated)
  . | -17
CCCNc1nc2nc3ccc(C)cn3c(=O)c2cc1C(N)=O
  3.5 | 23
CCC(CN1CCOCC1)NS(=O)(=O)c1cc2[nH]c3c(c2cc1C)C(=O)CC(C)(C)C3 (configuration not stated)
  . | 2
O=C(c1cc2ccccc2oc1=O)N(Cc1ccccc1)Cc1ccccc1
  1.4 | -7

An excerpt of these results, with each value named:
> CCn1c(C(C)NC(=O)C(C)(C)C)nc2ccccc21 (configuration not stated)
  MgrA-DNA mod = .; Sa helicase inh = -17

> CCCNc1nc2nc3ccc(C)cn3c(=O)c2cc1C(N)=O
  MgrA-DNA mod = 3.5; Sa helicase inh = 23

Among those listed so far, 4 contain a furan ring, fused or not.
Fields – MgrA-DNA mod | Sa helicase inh
COC(=O)c1cc(COC(=O)c2cc3ccccc3cc2O)oc1C
  . | 25
Cc1cc2c3c([nH]c2cc1S(=O)(=O)NCCCc1ccco1)CCCC3=O
  . | 11
C=CCC(NCc1ccccc1)c1ccco1 (configuration not stated)
  -2.6 | .
Cc1ccc(/C=N/N=C(/C(=O)c2ccccc2)c2ccccc2)o1
  . | -12

Further results follow.
Fields – MgrA-DNA mod | Sa helicase inh
COCC(=O)Nc1nc2ccccc2s1
  . | 1
Cc1ccc(CN(Cc2ccco2)C(=S)NCC(=O)NC2CC2)cc1
  . | -1
O=C(O)/C=C/C(=O)N1CCOCC1
  . | -3
Fc1ccccc1COc1cccc2cccnc12
  -1.0 | 18
COC(=O)c1sc2ccccc2c1OC(=O)c1cccs1
  -0.8 | .
O=S(=O)(c1cccc(-c2nn3c(-c4ccncc4)nnc3s2)c1)N1CCCCC1
  . | 15
COc1ccccc1NC(=O)Nc1sc2c(c1C(N)=O)CCC2
  . | -9
CC1CCN(C(=O)COC(=O)c2nn(-c3ccccc3C(F)(F)F)cc2O)CC1
  . | 2
O=C(CCC(=O)c1cccs1)Nc1ccc(F)c(F)c1F
  1.0 | -1
O=C(NC(=O)N1CCCC1)c1ccc(Cl)cc1
  -2.4 | -3

(further entries)
Fields – MgrA-DNA mod | Sa helicase inh
C=C1C2(C(=O)N3CCc4ccccc43)CCC(C2)C1(C)C (configuration not stated)
  0.8 | 8
N#CC(Cc1ccccc1)c1ccccc1 (configuration not stated)
  -2.8 | .
O=C(CSc1nnc(C23CC4CC(CC(C4)C2)C3)o1)NCCOc1ccccc1
  0.5 | -5
Cn1cnnc1SCc1ccc(C(=O)N=Nc2c(O)n(C)c3ccccc23)cc1
  . | 39
COc1ccc(C2=NN(CCc3ccccn3)C(=O)C2)cc1
  4.8 | -9
CCN(C(=O)c1cnccc1C(F)(F)F)c1cccc(C)c1C
  -0.2 | .
O=C(c1cc2ccccc2s1)N1CCOCC1
  -0.5 | .
CCNc1ncnc2oc(C)c(C(=O)OCC)c12
  . | -7
Cc1ccc(N=C2NC(=O)CC(C(=O)Nc3cccc4ccccc34)S2)cc1 (configuration not stated)
  -0.8 | -11
O=C(O)CCC(=O)Nc1ccc(S(=O)(=O)Nc2ccc(F)cc2)cc1
  . | 13

Further compounds
Fields – MgrA-DNA mod | Sa helicase inh
CCOc1ccc(OCC)c(NC(=O)C2CCCN2S(=O)(=O)c2cccc3cccnc23)c1 (configuration not stated)
  . | -2
Cc1nn(-c2ccccc2)nc1C(=O)NNC(=S)Nc1ccc(Cl)cc1
  1.2 | .
C/C(=N\NC(=O)NC1CCCCC1)c1ccc(OC(F)F)cc1OC(F)F
  . | 18
Cc1cc2nsnc2c(S(=O)(=O)NCC(=O)O)c1C
  -1.0 | -5
CCOc1ccc(NC(=O)CCCn2c(=O)c3cccn3c3ccccc32)cc1
  . | 13
O=C(O)CC(Sc1n[nH]c(=S)s1)C(=O)O (configuration not stated)
  17 | .
CC(=O)N1C(C(=O)O)CSC1c1ccc(C)cc1 (configuration not stated)
  0.6 | .
COc1cccc(/C=N/NC(=O)CC2C(=O)NN=C2C)c1O (configuration not stated)
  . | 26
O=C(NCC(c1ccco1)N1CCc2ccccc21)Nc1ccccc1 (configuration not stated)
  . | 2
COC(=O)C1SCCN1S(=O)(=O)c1ccc(-c2cc(C(F)(F)F)on2)s1 (configuration not stated)
  -2.9 | .

The list continues.
Fields – MgrA-DNA mod | Sa helicase inh
Cc1cc(C(=O)OCc2csc(CC(=O)Nc3ccccc3C)n2)c(C)o1
  . | -11
Cc1cc(C)nc(Nc2ccc(S(=O)(=O)Nc3ccccn3)cc2)n1
  3.8 | 16
O=C1CCCC2=C1C(c1ccccn1)n1ncnc1N2 (configuration not stated)
  -1.6 | -4
CCSc1nnc(C2CCCN(CC(=O)N3CCN(c4ccccc4)CC3)C2)n1CC (configuration not stated)
  -0.9 | 7
O=C1CCCC1Sc1nnc(-c2ccncc2)n1-c1ccc(F)cc1 (configuration not stated)
  . | 11
CNC(=O)c1ccsc1NC(=O)c1ccc(F)cc1
  . | 9
O=C(Cc1n[nH]c(=O)c2ccccc12)N/N=C/C=C/c1ccccc1
  . | 28
COc1ncnc2c1cnn2-c1ccccc1
  . | 0
O=C(COc1nncc2ccccc12)NC1CCS(=O)(=O)C1 (configuration not stated)
  . | 5
Cc1ccc(-c2nn(-c3ccccc3)cc2/C=C/C(=O)OCC(=O)c2c(N)n(C)c(=O)n(C)c2=O)o1
  . | -12

Other results follow.
Fields – MgrA-DNA mod | Sa helicase inh
CC1=C(C(=O)N2CCCCC2)S(=O)(=O)C(NC(=O)CC2CCS(=O)(=O)C2)=C1C#N (configuration not stated)
  . | 2
COc1ccc(-c2cc3ccccn3c2C)cc1
  . | -5
CCc1ccc(NC(=O)COC(=O)c2ccco2)cc1
  . | -11
COc1ccc(C(=O)n2c3c(c(=O)n2-c2ccccc2)Cc2ccc(OC)cc2O3)cc1
  . | 17
Cc1nnc(NC2=NCCC2)o1
  . | -9
CC(=O)N1CCc2cc(C(=O)CN3CC(C)CC(C)C3)ccc21 (configuration not stated)
  . | 20
COc1cc(C)c(C)cc1S(=O)(=O)NC1CCCCCC1
  . | -11
c1ccc(Oc2ccc(CN3CCCCC3)o2)cc1
  . | 5
OCC1(CO)CSC(Nc2ccc(F)c(Cl)c2)=N1
  -1.6 | .
CCOC(=O)c1cn(CC(C)C)c(=O)c2ccccc12
  . | -26

Following part
Fields – MgrA-DNA mod | Sa helicase inh
O=C(Oc1ccc(C(F)(F)F)cc1[N+](=O)[O-])c1c(F)cccc1F
  2.1 | .
CCc1cc(/C(Cc2cscn2)=N\O)c(O)cc1O
  . | 0
COc1ccc(CC(=O)Nc2ncn[nH]2)cc1
  . | 8
O=C(CSc1nc2c(c(=O)n1-c1ccc(Cl)cc1)SCC2)NCCc1ccccc1
  . | -12
N#Cc1ccccc1NC(=O)CC1Sc2ccccc2NC1=O (configuration not stated)
  . | -31
